VACV mCherry inh: qHTS for Stage-Specific Inhibitors of Vaccinia Orthopoxvirus: mCherry Reporter Primary qHTS; actives 0.63% (n = 310,000); Vaccinia virus mCherry reporter infection, fluorescence; about a quarter of the inactives have no number; Potency, µM (top dose mostly 36.5 µM), inactives show at the highest dose activity change, negative = inhibition, usual class: inhibitors; active = well fitted inhibition curve with a large enough effect; inconclusive = small, poorly fitted or top-dose-only effect; inactive = no such curve, though single readings can be large or run the other way; tested in A549 cells; note: nearly all actives have a fitted effect of over 35% in size; inactives centre near -10
VACV Venus inh: qHTS for Stage-Specific Inhibitors of Vaccinia Orthopoxvirus: Venus Reporter Primary qHTS; Vaccinia virus Venus reporter expression, fluorescence; actives 0.46% (n = 330,000); Potency, µM (highest dose often 36.5 µM), for the others: at the highest dose activity change, negative = inhibition, usual class: inhibitors; AID 720580, 2013; active means well fitted inhibition curve with a large enough effect; inconclusive means small, poorly fitted or top-dose-only effect; inactive means no such curve, though single readings can be large or run the other way; tested in A549 cells; note: nearly all actives have a fitted effect of over 30% in size; inactives centre near -10
Numbers without * were called inactive; i = inactive; ? = inconclusive; . = not tested or not shown; [ ] = dose if it differs, or a comment. % is set by controls: 0 for no effect and ±100 for the full control effect; potency is the fitted concentration of half-maximal effect.

A first look:
Structure,VACV mCherry inh,VACV Venus inh
Cc1cc(C(F)(F)F)nc(Nc2nc(C)c3ccccc3n2)n1,-18%,-5%
N#CCSc1nc2ccccc2c2nc3ccccc3n12,?,-19%
Cc1oc(-c2ccccc2)nc1CN1C(=O)CN=C(c2ccccc2)c2ccccc21,i,-19%
Cc1cc(NC(=O)CSc2nnc3ccc(-c4ccc(F)cc4)nn23)no1,-14%,2%

This part in full (from the top)
Structure,VACV mCherry inh,VACV Venus inh
Cc1cc(C(F)(F)F)nc(Nc2nc(C)c3ccccc3n2)n1,-18%,-5%
N#CCSc1nc2ccccc2c2nc3ccccc3n12,?,-19%
Cc1oc(-c2ccccc2)nc1CN1C(=O)CN=C(c2ccccc2)c2ccccc21,i,-19%
Cc1cc(NC(=O)CSc2nnc3ccc(-c4ccc(F)cc4)nn23)no1,-14%,2%
CC1(CCCN2C(=O)c3ccccc3C2=O)OCCO1,i[7.34 µM],-5%[7.34 µM]
Cc1nn(C(CC(=O)O)C(=O)O)c(C)c1Br (configuration not stated),-12%,1%
CC1Cc2ccccc2N1S(=O)(=O)c1cnc[nH]1 (configuration not stated),i,-8%
O=C(Nc1cccc(-c2ccc(N3CCOCC3)nn2)c1)c1ccc(F)cc1F,-8%,-7%
Cc1cccc(NS(=O)(=O)c2ccc(C(=O)N3CCCC3)cc2)c1C,-16%,-12%
CCOc1ccc(-n2c(-c3ccccc3)nnc2-c2ccccc2)cc1,i,0%
CCN(CC(=O)Nc1ccc(OC)cc1)C(=O)c1ccc2c(c1)NC(=O)C(C)S2 (configuration not stated),i,-19%
CCC(C)N1C(=O)NC(=O)C2(Cc3c(ccc4ccccc34)N(C)C2)C1=O (configuration not stated),-7%,-6%
CC1N=C2c3ccccc3N=C(SCC(=O)NCc3ccc(Cl)cc3)N2C1=O (configuration not stated),-14%,-4%
CCC(CC)C(=O)Nc1nnc(CCc2ccccc2)s1,-25%,-25%
CN1CCn2cnc(C(=O)Nc3ccc(Cl)cc3)c2C1=O,i,-6%
Cc1ccc(C2(C)NC(=O)N(CC(=O)N(Cc3ccccc3)C(C)(C)C)C2=O)cc1 (configuration not stated),-18%,-20%
CC(=O)c1ccc(NC(=O)c2noc3c2CSc2ccccc2-3)cc1,-22%,-18%
CCCCn1c(SCC(=O)O)nc2ccccc21,i,-10%
O=C(Nc1cc([N+](=O)[O-])ccc1N1CCOCC1)c1ccco1,i,-6%
COCCCN1CN(S(=O)(=O)c2ccc(Cl)cc2)c2nc3ccccc3nc21,.,0%
O=C(CSc1nc2ccsc2c(=O)n1Cc1ccc(F)cc1)NCc1ccc(Cl)cc1,-7%,-5%
CCN(Cc1ccccc1)S(=O)(=O)c1ccc(C(=O)N(CCCN(C)C)c2nc3c(C)c(C)ccc3s2)cc1,11µM*,?
CSc1nc(N)n2nc(C)cc2n1,12%,-1%
C=CCN(C(=O)Cn1nnc2ccccc21)C(C(=O)NCCOC)c1ccc(OC)cc1OC (configuration not stated),-8%,-7%
O=C1/C(=C/c2ccc3c(c2)OCO3)CCC/C1=C\c1ccc2c(c1)OCO2,i,-13%
COc1ccc(C(=O)N/C(=C\c2cn(S(=O)(=O)N(C)C)c3ccccc23)C(=O)NC(C)C)cc1,-10%,-9%
Cc1nn(-c2ccccc2)c(C)c1/C=N\N1CCN(c2ccc(Cl)cc2)CC1,.,-7%
CSCCC(NS(=O)(=O)c1ccc2[nH]c(=O)c(=O)[nH]c2c1)C(=O)O (configuration not stated),i,-2%
CC(=O)Oc1cccc(C2C3=C(CC(C)(C)CC3=O)Nc3ccccc3N2C(C)=O)c1 (configuration not stated),-10%,0%
Cc1ccc2nc(C)cc(Nc3ccc4c(c3)OCCO4)c2c1,-16%,-12%
CC(=O)c1cccc(NC(=O)Cn2nc(C)n3cccc3c2=O)c1,-9%,1%
CS(=O)(=O)c1cccc(C(=O)N(CCc2ccccc2)Cc2cccs2)c1,i,-12%
COc1ccc(/C=C/C(=O)NC(=S)N2CCOCC2)cc1,i,-7%
OC[C@@H]1CN(Cc2cccc(C(F)(F)F)c2)C[C@H](n2cnc3c(NC4CC4)ncnc32)O1,0%,-10%
CCOc1ccc(OCC)c(NC(=O)C2CCCN(S(=O)(=O)c3ccc4c(c3)oc(=O)n4C)C2)c1 (configuration not stated),-10%,-10%
Cc1ccc(C(=O)Nc2ccc(NC(=O)c3ccccc3Cl)c(C)c2)cc1,i,-20%
O=C(Nc1ccc2cn[nH]c2c1)c1ccccc1F,i,-1%
CCOC(=O)C1CCN(C(=O)COc2ccc(S(=O)(=O)NC(C)C)cc2Cl)CC1,.,-1%
CCOC(=O)C1=C(c2ccccc2)N=C2SCC(=O)N2C1c1ccc(O)c(OC)c1 (configuration not stated),-14%,1%
CCOc1ccccc1-c1noc(CCCC(=O)Nc2cccc(C(F)(F)F)c2)n1,-11%,4%
CC1CC(C)CN(CCCNC(=O)c2ccc(CS(=O)(=O)Cc3ccccc3F)o2)C1 (configuration not stated),.,-11%
CN(CC(=O)Nc1ccc(Cl)cc1)CC(=O)Nc1sc2c(c1C(N)=O)CCC2,i,-20%
COC(=O)CCC(=O)OC1(C)C(=O)C=C2C=C(C3CC3)N(CCc3ccccn3)C=C2C1=O (configuration not stated),-7%,-4%
COc1ccc(CCn2nnc3ccccc3c2=O)cc1OC,-4%,-8%
O=C1CCCC2=C1C(c1cccs1)Nc1ccccc1N2 (configuration not stated),-13%,-6%
CN(CC(=O)N1CC=C(c2ccccc2)CC1)S(=O)(=O)c1ccc2c(c1)c(=O)n(C)c(=O)n2C,i,?
O=C(Cn1ncc2ccc(Cl)cc21)NCc1ccc(F)cc1,i,-5%
Cc1cc(C)cc(NC(=O)Nc2ccc(N3CCCCC3)cc2)c1,?,-28%

Reprinted at random: seven compounds from above, in no set order.
Structure,VACV mCherry inh,VACV Venus inh
Cc1cc(C)cc(NC(=O)Nc2ccc(N3CCCCC3)cc2)c1,?,-28%
COC(=O)CCC(=O)OC1(C)C(=O)C=C2C=C(C3CC3)N(CCc3ccccn3)C=C2C1=O (configuration not stated),-7%,-4%
CN(CC(=O)Nc1ccc(Cl)cc1)CC(=O)Nc1sc2c(c1C(N)=O)CCC2,i,-20%
CC1CC(C)CN(CCCNC(=O)c2ccc(CS(=O)(=O)Cc3ccccc3F)o2)C1 (configuration not stated),.,-11%
O=C1CCCC2=C1C(c1cccs1)Nc1ccccc1N2 (configuration not stated),-13%,-6%
COc1ccc(CCn2nnc3ccccc3c2=O)cc1OC,-4%,-8%
CN(CC(=O)N1CC=C(c2ccccc2)CC1)S(=O)(=O)c1ccc2c(c1)c(=O)n(C)c(=O)n2C,i,?

Later entries
Structure,VACV mCherry inh,VACV Venus inh
O=C(Nc1ccc(-c2csc(Nc3ccc(Cl)cc3)n2)cc1)c1ccccc1,i,1%
CCn1c2c(c(=O)n3ncc(C(=O)Nc4ccc(F)c(Cl)c4)c13)CN(Cc1ccc(OC)cc1)CC2,-3%,-6%
CC1CCc2onc(C(=O)N3CCN(c4ccc(Cl)cc4)CC3)c2C1 (configuration not stated),-2%,-12%
COc1ccccc1NC(CC(=O)c1ccccc1)C(=O)OCC(=O)c1ccc(F)cc1 (configuration not stated),-13%,-3%
O=c1cnn(Cc2c(Cl)cccc2Cl)c2ccccc12,-2%,-22%
COc1ccc(CCN(Cc2nc3ccccc3c(=O)[nH]2)C(=O)c2ccco2)cc1,-7%,1%
COc1cccc(C(=O)NNC(=O)C(=O)Nc2cccc(Cl)c2C)c1,?,-23%
Cc1ccccc1NCN1C(=O)C2C3C=CC(C3)C2C1=O (configuration not stated),-12%[1.46 µM],-8%
C#CCOc1ccc(CNC[C@H]2O[C@@H](n3cnc4c(N)ncnc43)[C@H](O)[C@@H]2O)cc1,-26%,-14%
COC1OC2COC(c3ccccc3)OC2C(OC(C)=O)C1OC(C)=O (configuration not stated),-12%,0%
CCOC(=O)c1c2c(n(Cc3ccccc3)c1C)C(=O)C(=O)c1ccccc1-2,?,4.5µM*
CCOc1ccc(-c2nnc(SCC(=O)NC3CCCC3)nc2-c2ccc(OCC)c(OC)c2)cc1OC,-21%,-19%
COC(=O)c1c(Oc2ccc(C(C)=O)cc2)nnc(-c2ccccc2)c1-c1ccccc1,-14%,-17%
COCCCNC(=O)C1CCN(Cc2nc(-c3ccc(OC)c(OC)c3)oc2C)CC1,-8%,-5%
Cc1nc2ccc(C(=O)N3CCN(c4ccccc4)CC3)cn2c1N(C)C(=O)CCc1ccccc1,-20%,6%
COc1ccc(CCNS(=O)(=O)c2ccc(S(=O)(=O)N3CCCC3)cc2)cc1OC,i,-15%
CC(NC(=O)c1ccc([N+](=O)[O-])cc1[N+](=O)[O-])c1ccc(-c2ccccc2)cc1 (configuration not stated),i,-23%
O=C(Nc1ccnn1C1CCN(C2CCC2)CC1)c1ccccc1Cl,i,-6%
CCn1c(SCc2ccccc2)nnc1-c1ccc(S(=O)(=O)N2CCCCC2)cc1,-9%,?
COC(=O)c1cccc([N+](=O)[O-])c1CS(=O)(=O)c1ccc(C)cc1,-1%,-9%
O=C(NCCN1CCOCC1)c1cc(-c2ccc(Cl)c(Cl)c2)on1,-6%,-5%
O=C(OCc1c(-c2ccccc2)ncc2ccccc12)c1ccc(F)cc1,i,-20%
CC(C)(C)Cc1c(-c2cccc(Cl)c2)nc2ccc(Cl)cn12,1%,7%
COC(=O)c1sc2nc3c(cc2c1N)C(=O)CC(C)(C)C3,-24%,-23%
COc1ccc(S(=O)(=O)N2CCCCC2)cc1NC(=O)c1ccc2ccccc2n1,-11%,-10%
COc1ccc(NC(=O)c2c(-c3c(Cl)cccc3Cl)noc2C)cn1,-12%,-13%
Cc1nn(-c2ccccc2)c2c1cc1c(=O)n(C)c(=O)nc-1n2-c1ccccc1F,-16%,1%
CC(C)C[C@H]1CN([C@@H](Cc2ccc(O)cc2)CN2CCC[C@@H]2CN2C(=S)NC[C@@H]2Cc2ccccc2)C(=S)N1CCc1ccccc1,-6%,-23%
Nc1nnc(SCC(=O)Nc2cccc(S(N)(=O)=O)c2)s1,-3%,-11%
O=C1/C(=C/c2ccc3c(c2)OCO3)Oc2cc(OCC(=O)N3CC(O)C[C@H]3C(=O)O)ccc21 (some centres not stated),-4%,1%
CCOC(=O)C1(c2ccccc2)CCCNC1=O (configuration not stated),-4%,-17%
CCCCCSc1ncnc2c1sc1nc(N3CCOCC3)c3c(c12)CCCC3,2%,10%
Cc1cc(=O)oc2c(CN(C)Cc3ccccc3)c(O)ccc12,-24%,-10%
Cc1sc2c(c1C)c(=O)n(CCc1ccccc1)c(=O)n2Cc1cccc(F)c1,-8%,-10%
C[n+]1ccc(/C=C/c2ccccc2O)c2ccccc21,-12%,-13%
COc1ccc(-n2nc([N+](=O)[O-])c(=NC3CCN(Cc4ccccc4)CC3)n2O)cc1,?,?
O=C(/C=C/[C@H]1O[C@@H](n2ccc(=O)[nH]c2=O)[C@H](O)[C@@H]1O)NC(c1ccccc1)c1ccccc1,11%,0%
Cc1ccc2nc(N/N=C\c3ccc([N+](=O)[O-])o3)nc(-c3ccccc3)c2c1,.,-11%
COc1ccc(NC(=O)CN(C)C(=O)CCC(=O)c2ccc(C)cc2)cc1,-10%,-30%
CCOC(=O)c1c(N)nn(C(C)=O)c1-c1ccccc1,-18%,14%
CC1CN(C2=NC(=O)/C(=C/c3ccncc3)S2)CC(C)O1 (configuration not stated),-5%,-16%
O=C(COCc1cc(-c2cccs2)on1)N1CCN(c2cccc(Cl)c2)CC1,-19%,-12%
CCn1cc(C(=O)N2CCN(c3ccccc3OC)CC2)c(=O)c2cc(S(=O)(=O)N3CCCCC3)ccc21,-9%,?
CC(=O)N1N=C(N)SC12CCCC2,-12%,-3%
O=C(Cn1cccc1C(=O)c1ccccc1)NCCN1CCCCCC1,.,-7%
Cc1cc(SC(C)C(=O)NCC(=O)Nc2ccc(F)c(F)c2F)nc2ccccc12 (configuration not stated),-10%,-12%
COc1ccccc1Cc1c(C(C)(C)C)nc2c3ccccc3ccn12,i,5%
CCOC(=O)Cn1c(=O)oc2cc(S(=O)(=O)Nc3cc(Cl)ccc3OC)ccc21,-14%,7%
COc1ccc(N2CCN(C(C)C(=O)N(C)Cc3ccccc3)CC2)cc1 (configuration not stated),?,-10%
O=S(=O)(c1ccccc1)N1CCN(c2ncnc3scc(-c4ccccc4)c23)CC1,?,-24%
O=C1CCCN1CCC1CCN(C2CC(=O)N(Cc3ccc(N4CCCC4=O)cc3)C2=O)CC1 (configuration not stated),i,-6%
CCN1CCN(CC#CCOc2ccccc2OC)CC1,-8%,-3%
COc1ccccc1C(=O)NC1CCN(C(=O)Nc2ccc(F)cc2)CC1,-17%,-21%
Fc1cccc(Cc2c(C3CCCCC3)nc3ccc(Cl)cn23)c1,44%[activator],8%
